Compound activity: PubChem BioAssay, National Center for Advancing Translational Sciences (NCATS)
Cruzain Triton: qHTS Assay for Promiscuous and Specific Inhibitors of Cruzain (with detergent); Cruzipain (Trypanosoma cruzi), P25779; purified cruzain, Z-FR-AMC fluorescence, 0.01% Triton; 200,000 compounds, 0.43% hits; Potency, µM, inactives show max response, negative = inhibition, most hits filed as inhibitors;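 note: plate controls were neutral wells for no effect and buffer without enzyme for full effect; nearly all actives have a fitted effect of over 40% in size; top concentration of the series not given in the record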
Target sequence (P25779 123-467 limits assumed): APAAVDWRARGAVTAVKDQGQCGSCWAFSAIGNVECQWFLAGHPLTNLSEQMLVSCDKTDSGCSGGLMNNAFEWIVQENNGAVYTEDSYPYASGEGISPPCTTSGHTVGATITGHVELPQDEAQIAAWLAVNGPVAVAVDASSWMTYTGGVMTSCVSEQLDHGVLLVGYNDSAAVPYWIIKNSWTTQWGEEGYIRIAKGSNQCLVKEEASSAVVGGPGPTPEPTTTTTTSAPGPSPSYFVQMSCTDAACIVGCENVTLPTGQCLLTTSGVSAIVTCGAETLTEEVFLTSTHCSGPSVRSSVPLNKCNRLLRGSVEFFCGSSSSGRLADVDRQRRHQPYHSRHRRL
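Sodium acetate buffer (100 mM, pH 5.5) containing 5 mM DTT and 0.01% Triton X-100 hosted 1.5 nM cruzain and test compound for 15 min at room temperature. Cleavage of 2 uM Z-FR-AMC was then tracked by fluorescence.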
SARS PLpro yeast: qHTS of Yeast-based Assay for SARS-CoV PLP | S. cerevisiae expressing SARS-CoV PLpro, growth rescue; control for the full effect not named in the record | Potency, µM (series often up to 32.9 µM), for the others: at the highest dose activity, positive = growth rescue | 330,000 compounds, 0.19% hits | AID 485353, 2010; active means well fitted rising curve with a large enough effect; inconclusive means small, poorly fitted or top-dose-only effect; inactive means no such curve, though single readings can be large or run the other way; note: 0% is about no effect; nearly all actives have a fitted effect of over 55% in size; growth read by luminescence after 48 h
Cruzain noTriton: qHTS Assay for Promiscuous and Specific Inhibitors of Cruzain (without detergent); 200,000 compounds, 2.3% hits; purified cruzain, Z-FR-AMC fluorescence, no detergent; Potency, µM, for the others: max response, negative = inhibition, usual class: inhibitors;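 note: plate controls were enzyme without inhibitor for no effect and buffer without enzyme for full effect; nearly all actives have a fitted effect of over 40% in size; top concentration of the series not given in the record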
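Purified cruzain at 1.5 nM, pre-incubated 15 min with compound at room temperature in 100 mM sodium acetate pH 5.5, 5 mM DTT, 0.00005% Triton X-100. Reaction started with 2 uM Z-FR-AMC; AMC fluorescence increase over 60 s gives rate.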
StopGo reporter: High Throughput Screening for Foot and Mouth Disease Virus Antivirals | human cells with a luciferase reporter of 2A StopGo recoding; control for the full effect not named in the record | Potency, µM (top dose mostly 57.9 µM), for the others: at the highest dose signal change, negative = less light | 410,000 compounds, 1.2% hits | AID 1159524, 2015; active = well fitted falling curve with a large enough effect; inconclusive = small, poorly fitted or top-dose-only effect; inactive = no such curve, though single readings can be large or run the other way; tested in HEK293T cells; note: % is set by controls: 0 for no effect and ±100 for the full control effect; nearly all actives have a fitted effect of over 45% in size; luciferase light after 4 h
RE007 growth inh: qHTS Assay for Inhibitors of the HIV-1 protein Vpr | S. pombe RE007 Vpr strain, BacTiter-Glo ATP luminescence, 24 h; control for the full effect not named in the record | Potency, µM (series often up to 92.2 µM), inactives show top-dose activity change, negative = less growth | 360,000 compounds, 0.21% hits; active = well fitted falling curve with a large enough effect; inconclusive = small, poorly fitted or top-dose-only effect; inactive = no such curve, though single readings can be large or run the other way;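 note: % is set by controls: 0 for no effect and ±100 for the full control effect; nearly all actives have a fitted effect of over 50% in size; the assay follows cell death caused by Vpr and the record does not say whether a fall means rescue or toxicity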
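Fission yeast RE007 carrying one integrated HIV-1 vpr copy, seeded at OD 0.01 in PMG+AL medium with 23 nL pinned compound. Grown 24 h at 30 degrees; viability read by BacTiter-Glo luminescence after 5 min.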
NS1 inh: qHTS Assay for Inhibitors of Influenza NS1 Protein Function | S. cerevisiae slowed by influenza A NS1, growth recovery by OD600 | 270,000 compounds, 0.4% hits | Potency, µM (top dose mostly 46.1 µM), for the others: at the top dose activity, positive = more growth | AID 2326, 2010; active means well fitted rising curve with a large enough effect; inconclusive means small, poorly fitted or top-dose-only effect; inactive means no such curve, though single readings can be large or run the other way; note: nearly all actives have a fitted effect of over 50% in size
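OD600 was taken as the measure of yeast growth restored by compound in an NS1-expressing S. cerevisiae strain. Cells had been washed out of glucose medium and diluted 1:100 into galactose -URA medium, pH 6.0.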
LASV entry inh: qHTS for Inhibitors of binding or entry into cells for Lassa Virus; AID 540256, 2011; Potency, µM (series often up to 37.9 µM), inactives show at the highest dose activity change, negative = inhibition, usual class: inhibitors; Lassa virus pseudotype entry inhibition, cell reporter; control for the full effect not named in the record; 300,000 compounds, 1.2% hits; active means well fitted inhibition curve with a large enough effect; inconclusive means small, poorly fitted or top-dose-only effect, or effect the other way; inactive means flat fitted curve, though single readings scatter; tested in HEK293 cells; note: % is set by controls: 0 for no effect and ±100 for the full control effect; nearly all actives have a fitted effect of over 50% in size; luciferase read-out
MARV entry inh: qHTS for inhibitors of binding or entry into cells for Marburg Virus; Potency, µM (top dose mostly 37.8 µM), inactives show at the highest dose activity change, negative = inhibition, usual class: inhibitors; 300,000 compounds, 1.8% hits; AID 540276, 2011; Marburg virus pseudotyped entry inhibition, cell reporter; control for the full effect not named in the record; about a third of the inactives were read at about 46 µM; active = well fitted inhibition curve with a large enough effect; inconclusive = small, poorly fitted or top-dose-only effect, or effect the other way; inactive = flat fitted curve, though single readings scatter; tested in HEK293 cells; about a fifth of its hits are not listed in these tables; note: % is set by controls: 0 for no effect and ±100 for the full control effect; luciferase read-out
* = called active by the depositor; [ ] = remark or other dose. Unless noted, calls come from the whole dose curve; as a rule, active = well fitted curve in the direction sought with a large enough effect; inconclusive = small, poorly fitted or top-dose-only effect, or another doubt; inactive = no such curve, though single readings can be large; an effect the other way counts as inactive or inconclusive. Potency is the fitted concentration of half-maximal effect.

What do the screens show for `CCOC(=O)c1cccc(NC(=O)CCn2c(-c3ccc(F)cc3)cc(C(=O)OCC)c2C)c1`?
Cruzain Triton: -7.3%; Cruzain noTriton: -5%; StopGo reporter: -16%; LASV entry inh: inconclusive

What do the screens show for `N#Cc1cccc(S(=O)(=O)NCC(=O)OCC(=O)c2ccc[nH]2)c1`?
SARS PLpro yeast: 0%; StopGo reporter: -1%; RE007 growth inh: -3%; LASV entry inh: 27%; MARV entry inh: 1%

How did COc1ccc(CC(NC(C)=O)C(=O)NC2CCN(C(=O)c3ccncc3)CC2)cc1OC (stereo not given) do in these assays?
SARS PLpro yeast: 1%; StopGo reporter: 5%; RE007 growth inh: 8%; NS1 inh: -2%; LASV entry inh: 12%[46.1 µM]; MARV entry inh: inconclusive

Results for Cc1[nH]c2ccc(C(=O)NCCN3CCOCC3)cc2c1C ?
SARS PLpro yeast: 0%; StopGo reporter: 0%; RE007 growth inh: 2%; NS1 inh: 10%

What do the screens show for `CCOC(=O)N1CCN(CC(O)COCc2ccc(Cl)cc2)CC1` (stereo not given)?
Cruzain Triton: 1.1%; SARS PLpro yeast: 3%; Cruzain noTriton: 6%; StopGo reporter: -24%; RE007 growth inh: 7%; NS1 inh: -5%; LASV entry inh: inconclusive; MARV entry inh: inconclusive

What do the screens show for `C/C(=C/c1ccccc1)C(=O)N1CCN(c2ccccc2F)CC1`?
StopGo reporter: 7%; RE007 growth inh: -27%; NS1 inh: 8%; LASV entry inh: 7%[46.1 µM]; MARV entry inh: 1%[46.1 µM]

What do the screens show for `CCc1cccc(NC(=O)Cn2c3[n+](c4ccc(C(F)(F)F)cc42)CCCCC3)c1`?
Cruzain Triton: -3.5%; SARS PLpro yeast: -13%; Cruzain noTriton: 16%; StopGo reporter: -15%; RE007 growth inh: 6%; NS1 inh: 8%; LASV entry inh: 3%; MARV entry inh: 17%

What do the screens show for `Cc1cccc(C)c1NC(=O)CSc1nc(-c2ccccc2)nc2c1Cc1c(CO)cnc(C)c1O2`?
Cruzain Triton: 0.7%; Cruzain noTriton: 16%; StopGo reporter: -15%; LASV entry inh: 30%[46.1 µM]

What do the screens show for `S=C(Nc1ccc2nccnc2c1)N1CCCC1`?
SARS PLpro yeast: 1%; StopGo reporter: 12%; RE007 growth inh: 8%; NS1 inh: -3%; LASV entry inh: 0%; MARV entry inh: 28%[46.1 µM]

Results for O=C(CSc1nnc(-c2c[nH]c3ccccc23)o1)NCC1CCCO1 (stereo not given) ?
SARS PLpro yeast: 4%; StopGo reporter: -15%; RE007 growth inh: -9%; LASV entry inh: 3%; MARV entry inh: -5%

How did O=C(NCc1ccccn1)Nc1ccc(F)cc1F do in these assays?
SARS PLpro yeast: -2%; StopGo reporter: 11%; RE007 growth inh: 0%; NS1 inh: 5%

How did CCc1ccc(CNC(=O)c2cc3c(=O)oc4ccc(C)cc4c3s2)cc1 do in these assays?
Cruzain Triton: -1.6%; Cruzain noTriton: -4%; StopGo reporter: 1%; LASV entry inh: -16%[46.1 µM]; MARV entry inh: inconclusive

Results for S=C(NCCN1CCCCC1)Nc1ccccc1 ?
SARS PLpro yeast: 0%; StopGo reporter: 14%; RE007 growth inh: 16%; NS1 inh: 2%

Results for CN(C1CCCCC1)S(=O)(=O)c1cc2c3c(c1)CCN3C(=O)CC2 ?
SARS PLpro yeast: -2%; StopGo reporter: 14%; RE007 growth inh: -1%; LASV entry inh: 11%; MARV entry inh: 12%[46.1 µM]

What do the screens show for `Cc1occc1-c1nnc(SCC(=O)NC(C)(C)C)n1C(C)c1ccccc1` (stereo not given)?
Cruzain Triton: -2.3%; SARS PLpro yeast: -3%; Cruzain noTriton: -5%; StopGo reporter: 1%; RE007 growth inh: 12%; NS1 inh: -6%; LASV entry inh: -22%; MARV entry inh: -25%[46.1 µM]

Results for COc1ccc(S(=O)(=O)CCC(=O)NCCc2ccc(S(N)(=O)=O)cc2)cc1 ?
Cruzain Triton: 7.8%; SARS PLpro yeast: -5%; Cruzain noTriton: 0%; StopGo reporter: -16%; RE007 growth inh: -3%; NS1 inh: 0%; LASV entry inh: -6%; MARV entry inh: -9%

What do the screens show for `COc1cccc(CN2C(=O)C(C)N(C(=O)c3c(F)cccc3F)c3ccccc32)c1` (stereo not given)?
SARS PLpro yeast: 1%; StopGo reporter: 28µM*; RE007 growth inh: -10%; NS1 inh: -43%

Results for COc1ccc(Cl)cc1Nc1nc(-c2cccnc2)cs1 ?
SARS PLpro yeast: -12%; StopGo reporter: -9%; RE007 growth inh: -13%; NS1 inh: -25%; LASV entry inh: 1%[46.1 µM]; MARV entry inh: inconclusive

What do the screens show for `O=Cc1ccc(Cl)c(Cl)c1`?
Cruzain Triton: 3.5%; SARS PLpro yeast: -2%; Cruzain noTriton: -2%; StopGo reporter: -24%; RE007 growth inh: 0%

Results for COc1ccc(NC(=O)c2ccccc2F)cc1Cl ?
Cruzain Triton: -3.8%; SARS PLpro yeast: -2%; Cruzain noTriton: -4%; StopGo reporter: 43%[activator]; RE007 growth inh: inconclusive; NS1 inh: -15%; LASV entry inh: -16%; MARV entry inh: -15%

Results for CCOC(=O)C1CCN(CC(O)COc2ccc(S(=O)(=O)N3CCCC3)cc2[N+](=O)[O-])CC1 (stereo not given) ?
SARS PLpro yeast: -2%; StopGo reporter: -7%; RE007 growth inh: -6%; LASV entry inh: 10%; MARV entry inh: -4%

Results for CN(CC(=O)NC1(C)CCS(=O)(=O)C1)S(=O)(=O)c1ccc(Cl)cc1 (stereo not given) ?
SARS PLpro yeast: -8%; StopGo reporter: -16%; RE007 growth inh: 2%; LASV entry inh: 23%; MARV entry inh: 29%

What do the screens show for `CCCNC(=O)c1[nH]c(C)c(C(=O)OCC)c1C`?
Cruzain Triton: -1.5%; SARS PLpro yeast: 10%; Cruzain noTriton: -6%; NS1 inh: -1%

How did Cc1cccc(C)c1Nc1nnc(SCC(=O)NCc2ccco2)s1 do in these assays?
Cruzain Triton: 2.8%; SARS PLpro yeast: -3%; Cruzain noTriton: 0%; StopGo reporter: -11%; RE007 growth inh: 11%; NS1 inh: 8%; LASV entry inh: inconclusive; MARV entry inh: -5%

Results for O=C(COc1ccc(Cl)cc1)NCc1nnc(SCC(=O)Nc2ccc3c(c2)OCCO3)o1 ?
Cruzain Triton: -3.7%; SARS PLpro yeast: -5%; Cruzain noTriton: -14%; StopGo reporter: -8%; RE007 growth inh: 6%; NS1 inh: -15%; LASV entry inh: -5%; MARV entry inh: 4%[46.1 µM]

Results for Cc1ccc(-n2c(CNc3ccc(F)cc3)nnc2SCC(=O)O)cc1 ?
SARS PLpro yeast: 0%; StopGo reporter: -2%; RE007 growth inh: 6%; NS1 inh: 5%; LASV entry inh: 8%[46.1 µM]; MARV entry inh: 21%[46.1 µM]

How did COc1ccc(NC(=O)N2CCC(n3c(C)nc4cccnc43)CC2)cc1OC do in these assays?
Cruzain Triton: 0.1%; Cruzain noTriton: 6%; StopGo reporter: -7%; LASV entry inh: 16%[46.1 µM]

How did C=CCc1cccc2cc(-c3nc4ccc(C)cc4[nH]3)c(=O)oc12 do in these assays?
Cruzain Triton: -1.3%; Cruzain noTriton: -25%; StopGo reporter: 11%; LASV entry inh: 0%[46.1 µM]

What do the screens show for `CC(C)=C(NC(=O)c1ccccc1)C(=O)Nc1cccc(C(=O)O)c1`?
SARS PLpro yeast: -1%; StopGo reporter: -16%; RE007 growth inh: 14%; NS1 inh: 1%

Results for O=C(O)c1ccc2c(c1)C(=O)N(CCC1=CCCCC1)C2=O ?
Cruzain Triton: -5.4%; SARS PLpro yeast: inconclusive; Cruzain noTriton: -3%; StopGo reporter: 4%; RE007 growth inh: 6%; NS1 inh: -33%; LASV entry inh: -2%; MARV entry inh: -1%

How did COc1cccc(NC(=O)C(Cc2ccccc2)NS(=O)(=O)c2ccc3c(c2)c(=O)n(C)c(=O)n3C)c1 (stereo not given) do in these assays?
Cruzain Triton: -3.4%; Cruzain noTriton: 13%; StopGo reporter: -3%; LASV entry inh: 6%[46.1 µM]; MARV entry inh: -2%[46.1 µM]

What do the screens show for `Cc1cccc2cc(CN(CCN3CCOCC3)C(=O)NCc3ccccc3)c(=O)[nH]c12`?
Cruzain Triton: 0.8%; SARS PLpro yeast: 10%; Cruzain noTriton: -6%; StopGo reporter: -23%; RE007 growth inh: 2%; NS1 inh: -15%; LASV entry inh: 20%; MARV entry inh: 17%

Results for Cc1ccccc1NC(=O)Nc1cc(-c2ccccc2)nn1C ?
SARS PLpro yeast: 4%; StopGo reporter: 32%[activator]; RE007 growth inh: -6%; NS1 inh: 1%; LASV entry inh: inconclusive; MARV entry inh: inconclusive

What do the screens show for `CCOc1ccc(CC(=O)N2CCc3cc(OC)c(OC)cc3C2COc2ccc3c(C)cc(=O)oc3c2)cc1` (stereo not given)?
Cruzain Triton: 5.6%; Cruzain noTriton: -2%; StopGo reporter: -16%; LASV entry inh: 10%[46.1 µM]; MARV entry inh: 2%[46.1 µM]

Results for C[C@]12CCC3C(C(=O)C[C@H]4C[C@@H](O)CC[C@]34C)C1CCC2=O (stereo not given in full) ?
SARS PLpro yeast: -11%; StopGo reporter: -15%; RE007 growth inh: 1%; LASV entry inh: 0%[46.1 µM]; MARV entry inh: inconclusive

Results for O=C(CCn1nnnc1CN1CCOCC1)N1CCC(c2ccccc2Cl)C1 (stereo not given) ?
SARS PLpro yeast: -1%; StopGo reporter: -12%; RE007 growth inh: 3%; NS1 inh: 5%; LASV entry inh: 3%; MARV entry inh: -6%

What do the screens show for `COc1ccc(C(c2c(O)nc[nH]c2=O)c2c(O)nc[nH]c2=O)cc1`?
SARS PLpro yeast: 0%; StopGo reporter: -3%; RE007 growth inh: 15%; NS1 inh: -54%; LASV entry inh: 1%; MARV entry inh: 7%[46.1 µM]

No enrichment for hits; about 4.7% have a hit in one of these screens.
